Source: PubChem (National Center for Advancing Translational Sciences (NCATS))
D2 ag = Beta-Arrestin HTS for Positive Allosteric Modulators of the Human D2 Dopamine Receptor: Agonists. D(2) dopamine receptor (Homo sapiens), P14416. DiscoveRx PathHunter D2 beta-arrestin, luminescence, 90 min; 100% = 57 uM dopamine signal. activation, % (test concentration not listed). 360,000 compounds, 0.084% hits. AID 624465, 2012; in the data active = activation above about 40%; inconclusive = about 15% to 40%; inactive = below about 15%; also: compound concentration not given in the record; the text of the record calls up to 30% inactive
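DiscoveRx PathHunter D2 beta-arrestin cells (2,100/well) attached overnight, then compound-stimulated 90 min at 37 C in HBSS/10 mM HEPES/0.1% Tween-20 buffer; beta-galactosidase complementation read by luminescence after 1 h at ambient temperature. Dopamine 57 uM final (EC100) as control.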
PINK1 expr mod = A Quantitative High throughput Screen to Identify Chemical Modulators of PINK1 Expression | PINK1 immunofluorescence, high-content cytometry, 24 h | 410,000 compounds, 0.2% hits | Potency, µM (series often up to 76.6 µM), for the others: at the top dose activation (PINK1 increase), actives largely listed as activators; active = well fitted activation curve with a large enough effect; inconclusive = small, poorly fitted or top-dose-only effect; inactive = flat fitted curve, though single readings scatter; cell line not stated here;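 also: potency is read from the fitted curve at half-maximal effect; % of control where 0% means no effect; nearly all actives have a fitted effect of over 65% in size; a mitochondrial uncoupler was the plate control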
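Decision-based qHTS: stable cells, 24 h exposure to five compound concentrations, CCCP as control. Fixed cells stained for PINK1 plus nuclear, mitochondrial and cell markers, cytometer read.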
CtBP-E1A inh = qHTS Assay for Inhibitors of the CtBP/E1A Interaction; AlphaScreen GST-E1A/His-CtBP binding, 1536-well; active compounds read low; control for the full effect not named in the record; activity change, % (no concentration beside the values); 340,000 compounds, 0.49% hits; AID 651724, 2012; in the data active means activity change below about -65%; inconclusive means about -30% to -65%; inactive means above about -30%; also: % is scaled to controls: 0 for no effect and ±100 for the full control effect
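In 5 uL wells, 23 nL compound meets equimolar GST-E1A and His-CtBP (5X stock 125 nM each) for 2 h, 37 °C. Beads (5X, 50 ug/mL) then 1 h, 37 °C, dark.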
Sfp inh = qHTS Assay for Inhibitors of Bacillus subtilis Sfp phosphopantetheinyl transferase (PPTase); Potency, µM, for inactives: max response, negative = inhibition, hits mostly inhibitors; 310,000 compounds, 3.5% hits; Biochemical Sfp PPTase activity, qHTS; AID 1490, 2009; active = well fitted inhibition curve with a large enough effect; inconclusive = small, poorly fitted or top-dose-only effect, or another doubt; inactive = no such curve, though single readings can be large or run the other way;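 also: the enzyme is Sfp with the accession as filed and its product quenches rhodamine fluorescence; potency is read from the fitted curve at half-maximal effect; 0% = enzyme reaction without inhibitor and -100% = no enzyme wells; top concentration of the series not given in the record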
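Reaction rates are the 30-min fluorescence difference (ex 525, em 598 nm) in wells containing 15 nM Sfp, 5 uM rhodamine-CoA and 12.5 uM BHQ-2-YbbR at pH 7.6 with 10 mM MgCl2.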
Six1-Eya2 blk = qHTS Assay for Inhibitors of the Six1/Eya2 Interaction; activity change, % (no concentration beside the values); AlphaScreen GST-Six1/His-Eya2 binding, biochemical; active compounds read low; control for the full effect not named in the record; 360,000 compounds, 0.56% hits; Homeobox protein SIX1 (Homo sapiens) + Protein phosphatase EYA2 (Homo sapiens), …; in the data active = activity change below about -65%; inconclusive = about -30% to -65%; inactive = above about -30%; also: % is scaled to controls: 0 for no effect and ±100 for the full control effect
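AlphaScreen luminescence read after one hour at 37 °C in darkness. Pin-transferred compounds met GST-Six1 and His-Eya2 protein (5X stock 250 nM/500 nM) plus glutathione donor and Ni-chelate acceptor beads (5X, 50 ug/mL).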
D2 PAM = Beta-Arrestin HTS for Positive Allosteric Modulators of the Human D2 Dopamine Receptor: Potentiators; potentiation, % (no concentration beside the values); AID 624464, 2012; 360,000 compounds, 0.23% hits; D(2) dopamine receptor (Homo sapiens), P14416; DiscoveRx D2 beta-arrestin cells, luminescence, 90 min; 100% = 57 uM dopamine signal; active = potentiation of 50% or more; inconclusive = 30% to 50%; inactive = 30% or less;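 also: compound concentration not given in the record; tested on top of an EC20 dose of dopamine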
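PathHunter D2 cells, attached overnight at 37 deg C, received compound in DMSO plus dopamine at EC20 (50 nM final) for 90 min at 37 deg C. Beta-arrestin recruitment was read as luminescence after 1 h with detection reagent at ambient temperature.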
TRPV1 PAM = HTS Assay for Compounds that Act as Potentiators of the Vanilloid Receptor 1 | Transient receptor potential cation channel subfamily V member 1 (Homo sapiens), Q8NER1 | TRPV1-expressing cells, Fluo-8 calcium influx, capsaicin EC20 potentiation; host cell line not named in the record; control for the full effect not named in the record | potentiation, % at 8.33 µM | 320,000 compounds, 0.02% hits; active means potentiation above 80%; inconclusive means 30% to 80%; inactive means below 30%; also: 0% is about no effect
Target sequence (Q8NER1 whole entry, looked up): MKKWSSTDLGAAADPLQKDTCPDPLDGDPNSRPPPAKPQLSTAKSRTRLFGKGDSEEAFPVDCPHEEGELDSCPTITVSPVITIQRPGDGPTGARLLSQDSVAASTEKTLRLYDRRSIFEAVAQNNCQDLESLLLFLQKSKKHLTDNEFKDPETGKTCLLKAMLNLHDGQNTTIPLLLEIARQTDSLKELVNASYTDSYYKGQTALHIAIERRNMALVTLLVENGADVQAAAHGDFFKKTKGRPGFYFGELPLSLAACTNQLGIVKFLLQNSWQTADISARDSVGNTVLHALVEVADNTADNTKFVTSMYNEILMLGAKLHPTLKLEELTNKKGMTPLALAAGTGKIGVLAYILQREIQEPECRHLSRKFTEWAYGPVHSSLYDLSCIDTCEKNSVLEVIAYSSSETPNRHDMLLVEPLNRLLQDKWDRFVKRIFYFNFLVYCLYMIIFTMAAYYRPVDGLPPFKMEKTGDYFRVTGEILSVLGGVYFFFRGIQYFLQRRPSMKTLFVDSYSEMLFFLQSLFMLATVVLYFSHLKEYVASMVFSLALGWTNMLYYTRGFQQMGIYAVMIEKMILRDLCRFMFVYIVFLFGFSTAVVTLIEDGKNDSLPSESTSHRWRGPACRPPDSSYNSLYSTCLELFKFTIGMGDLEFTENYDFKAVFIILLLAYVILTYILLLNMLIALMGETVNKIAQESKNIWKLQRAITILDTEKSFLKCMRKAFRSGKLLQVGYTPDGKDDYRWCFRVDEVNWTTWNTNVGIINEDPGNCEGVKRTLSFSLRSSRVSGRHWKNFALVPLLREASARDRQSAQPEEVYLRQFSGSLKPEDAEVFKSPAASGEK
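Fluo-8 calcium influx in TRPV1-expressing cells, kinetic read (ex 480/em 520 nm). Compound added and read 3 min for agonist activity, followed by capsaicin at EC20 final and 2 min further read for enhancement.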
* marks the source's active call; other numbers are inactive results; u = inconclusive; x = not tested or not shown; [ ] = remark or other dose. Not a hit list; about 3.7% have a hit in one of these screens.

Values run as follows: TRPV1 PAM | D2 ag | PINK1 expr mod | D2 PAM | Sfp inh | Six1-Eya2 blk | CtBP-E1A inh
1	Cc1ccc(Cn2nc3c(cc2=O)CCc2ccccc2-3)cc1
 : -8.3 | -2.3 | 0.6% | -4.6 | 11.0% | 0.1 | 5.9
2	COc1cccc(C(O)c2nc(-c3cc(F)cc(F)c3)cs2)c1 (stereo not given)
 : x | 12.2 | 3.5% | -0.6 | x | -0.1 | 11.4
3	Cc1cc(C(=O)NC2CC(C)(C)Cc3c2cnn3-c2cccc(F)c2)n(C)n1 (stereo not given)
 : -2.2 | -4.2 | 10.3% | -9.7 | -0.1% | -2.2 | 3.2
4	COc1ccc(NC(=O)N2CCN(c3nc(-c4cccc(OC)c4)cs3)CC2)cc1
 : -9.1 | 0.7 | -1.9%[38.3 µM] | -3.4 | 3.3% | -25.9 | -27.5
5	CC(NC(=O)Nc1ccc(Cl)cc1)C(c1cccs1)N1CCOCC1 (stereo not given)
 : -17.0 | 2.7 | 0.4% | -4.5 | 7.6% | 2.1 | -3.6
6	COC(=O)c1cccc(NC(=O)CCN2C(=O)C3CC=CCC3C2=O)c1 (stereo not given)
 : -2.9 | -0.2 | 1.8% | -20.1 | x | -0.1 | -1.5
7	Cn1c(N)c(C(=O)CSc2nnc(-c3ccccc3F)n2C2CC2)c(=O)n(C)c1=O
 : 12.6 | 2.9 | 1.6% | 5.5 | -16.7% | 3.6 | -7.6
8	O=C(CNC(=O)c1ccccc1)OCc1cc(=O)n2cc(Br)ccc2n1
 : 3.1 | -3.7 | 0.7% | -0.5 | 0.3% | 8.2 | -2.4
9	COc1cccc(C=NNc2nc3ccccc3s2)c1OC
 : x | 0.5 | 4.3% | 2.2 | x | 7.8 | -0.4
10	C/C=C/Cn1c(SCCCc2ccccc2)nc2c1c(=O)[nH]c(=O)n2C
 : 6.7 | 0.4 | 3.7% | 3.4 | -25.4% | -2.6 | 3.8
11	CCOc1c(Br)cc(/C=C2/SC(=O)N(CC(=O)N3CCCC3)C2=O)cc1OC
 : 6.4 | -1.0 | 14.8% | -5.2 | 9.7% | -11.8 | 7.9
12	O=C(CCSc1ccccc1)NCc1cccnc1
 : -28.1 | -1.4 | -1.4% | -20.1 | 11.9% | 4.4 | -3.5
13	O=C(COc1ccccc1Br)Nc1ccccc1C(F)(F)F
 : -3.1 | 2.2 | 3.3% | -10.5 | 3.3% | 8.0 | x
14	COc1ccccc1N1CCN(C(=O)C(C)N(c2ccc(C)cc2)S(C)(=O)=O)CC1 (stereo not given)
 : 4.3 | -3.5 | 0.3% | 7.9 | 3.1% | -0.6 | 5.7
15	CCN(CC)CCCNC(=O)C1CCN(c2ncnc3c2sc2cccc(F)c23)CC1
 : -5.4 | 4.2 | 2.9% | -13.5 | 11.2% | -5.2 | -8.9

Values run as follows: TRPV1 PAM | D2 ag | PINK1 expr mod | D2 PAM | Sfp inh | Six1-Eya2 blk | CtBP-E1A inh
16	COc1ccc(CCNC(=O)CSc2nn3c(=O)c(C)nnc3s2)cc1OC
 : u | 3.6 | 1.4% | -10.3 | 8.8% | -24.6 | u
17	c1cncc(Cc2cc3ccccc3[nH]2)c1
 : 2.8 | -1.2 | 2.4% | -2.0 | 1.5% | -6.9 | -3.1
18	CC1(C(=O)NCc2ccccc2)CCC(=O)N1CCc1c[nH]c2ccccc12 (stereo not given)
 : x | -3.8 | 0.2% | -7.4 | x | 13.9 | 4.1
19	Cc1nc2c(c(=O)n1CCC(C)C)c1nc3ccccc3nc1n2Cc1ccc2c(c1)OCO2
 : 13.5 | -4.2 | 0.8% | -16.7 | -12.1% | -3.6 | 10.0
20	COc1ccc(/C=C(/NC(=O)c2ccc([N+](=O)[O-])cc2)C(=O)NCCCN(C)C)cc1
 : 2.7 | 0.3 | -0.2% | -8.1 | -4.8% | 0.7 | 0.3
21	O=C(O)c1ccc(-n2c(-c3cc(-c4ccco4)[nH]n3)n[nH]c2=S)cc1
 : 3.0 | -2.6 | -0.4% | -20.0 | 44.7µM* | -3.4 | -6.4
22	O=C(NC1CCN(CC(=O)N(c2ccccc2)c2ccccc2)CC1)c1ccc([N+](=O)[O-])cc1
 : 4.3 | -7.1 | -0.2% | -6.0 | 4.6% | -3.4 | -16.9
23	OCC1(CC2CCCCO2)CCN(C/C=C/c2ccccc2)CC1 (stereo not given)
 : 20.5 | -0.9 | -1.2% | -18.6 | 14.7% | -3.1 | -0.1
24	Cc1cccc(OCC(=O)Nc2ccc(C(=O)NCC(C)C)cc2)c1
 : -15.0 | -0.6 | 3.9% | 2.4 | 27.5% | 7.3 | 9.6
25	CC1CC(C)CN(CCCNC(=O)c2ccc3nc(N4CCCCC4)sc3c2)C1 (stereo not given)
 : -1.8 | -4.6 | 0.1% | -8.8 | 4.0% | 1.7 | -0.4
26	COc1ccc(Br)c(C(=O)N(C)CC(=O)Nc2ccc(N3CCOCC3)cc2)c1
 : 3.2 | -3.3 | -0.3% | -10.7 | x | 1.7 | -2.1
27	CC(C)c1ccccc1NC(=S)NN(Cc1ccccc1)c1ccccc1
 : 11.8 | -3.3 | 5.8% | -1.4 | 24.5% | -16.6 | -11.5
28	COc1ccc(S(=O)(=O)N2CCCCCC2)cc1C(=O)N1CCN(c2ccccc2O)CC1
 : -5.7 | -1.3 | 0.2% | 21.1 | x | -8.6 | -2.8
29	CC(C)C(=O)Nc1nc(-c2ccc([N+](=O)[O-])cc2)cs1
 : 12.7 | -1.1 | 3.1% | -0.1 | 11.7% | -8.0 | -12.5
30	COc1ccccc1-n1c(C)nc(=O)c(-c2ccccc2)c1C
 : 5.3 | 4.6 | -1.4% | 8.5 | -16.3% | -1.9 | -1.6

Values run as follows: TRPV1 PAM | D2 ag | PINK1 expr mod | D2 PAM | Sfp inh | Six1-Eya2 blk | CtBP-E1A inh
31	Cn1c(N)c(C(=O)CSc2nn(-c3ccccc3)c(=S)s2)c(=O)n(C)c1=O
 : 2.7 | 1.3 | -2.2% | -67.8 | x | -7.8 | -1.8
32	O=C(CN1CCCN(Cc2ccc(F)cc2)S1(=O)=O)NC1CCCC1
 : -2.5 | 0.4 | -0.5% | -11.9 | 2.0% | 4.6 | -6.4
33	Cc1cccc(N2CN(Cc3cccnc3)CNC2=S)c1C
 : 0.2 | 1.0 | -1.1% | -3.7 | 22.0% | 12.5 | -7.0
34	C=CCn1c(-c2sc3nc(C)cc(C)c3c2N)n[nH]c1=S
 : -1.3 | 2.6 | -2.0% | 2.4 | 7.8% | -17.0 | -0.1
35	Cc1ccc(-c2cc(C)nc3ncnn23)cc1
 : x | -3.9 | -1.8% | -3.2 | 13.9% | -2.0 | -0.8
36	c1ccc(-n2ncc3c(NCc4ccco4)ncnc32)cc1
 : -4.0 | -2.6 | 5.9% | -6.3 | 7.5% | -8.4 | -2.4
37	Cc1ccc(NC(=O)c2ccccc2[N+](=O)[O-])nc1
 : 9.5 | -2.7 | 8.1% | -17.7 | 1.0% | -5.4 | 1.1
38	CC1(C)N(O)CC(c2cccs2)=[N+]1[O-]
 : 3.9 | 1.4 | 7.2%[38.3 µM] | -7.8 | 6.6% | -0.1 | 3.6
39	CN(Cc1ccccc1)c1oc(-c2ccco2)nc1C#N
 : -5.9 | 2.0 | 0.4% | -15.5 | -2.5% | -23.0 | -24.6
40	O=[N+]([O-])c1ccccc1S(=O)(=O)N1CCN(c2ccccn2)CC1
 : -9.6 | 4.0 | 0.3% | -20.4 | -0.1% | -1.2 | x
41	COc1ccc(CC(=O)c2c(O)cc(O)cc2O)cc1OC
 : -11.7 | -5.2 | 5.5%[38.3 µM] | -14.0 | -16.3% | -0.5 | -3.1
42	COc1ccc(CNS(=O)(=O)c2cc(OCC(N)=O)c(C)cc2Cl)cc1
 : 4.4 | -3.3 | -1.9% | -15.9 | 14.2% | -0.4 | -0.2
43	CS(=O)(=O)c1ccccc1C(=O)Nc1ccc2sccc2c1
 : u | -2.6 | 1.3% | -6.8 | 9.0% | 2.0 | x
44	O=C1CCCN1CCCNC(=S)Nc1ccc(Nc2ccccc2)cc1
 : 7.1 | -0.7 | -0.4% | -7.1 | 56.2µM* | -6.3 | -2.7
45	CCCN1C2CCCC1CC(NC(=S)Nc1cccc(C)c1)C2 (stereo not given)
 : 9.8 | 0.7 | 0.9% | -8.0 | 3.9% | -1.6 | 0.3

Values run as follows: TRPV1 PAM | D2 ag | PINK1 expr mod | D2 PAM | Sfp inh | Six1-Eya2 blk | CtBP-E1A inh
46	O=C(CCc1nc(-c2ccccc2)c(-c2ccccc2)o1)OCc1ccc(Cl)cc1
 : 12.0 | -0.7 | 2.9%[38.3 µM] | -3.5 | 23.8% | 21.3 | 25.6
47	Cc1cccc(-n2ncc3c2CCCC3NC(=O)CN2CCCC2=O)c1C (stereo not given)
 : -4.1 | -1.6 | -1.9% | -1.0 | -2.2% | 24.5 | -8.0
48	CC(C)(C)c1ccc(/C=N/N2CCN(c3ccccn3)CC2)cc1
 : -9.2 | -0.3 | 9.8% | -5.2 | -0.7% | -15.9 | -0.6
49	CCn1c(SCC(=O)Nc2ccc(C)cc2)nc(O)cc1=O
 : 2.3 | 0.1 | 0.5% | -5.2 | 0.6% | -1.0 | 2.0
50	COc1ccc(Nc2nc3ccccc3nc2NS(=O)(=O)c2cccs2)c(OC)c1
 : u | -3.4 | 3.3% | -5.6 | 16.1% | 5.5 | 2.6
51	O=C(CNC(=O)c1ccc(Cl)cc1Cl)OCCCn1c(=O)[nH]c2ccccc21
 : -0.4 | -8.1 | -2.6% | -18.7 | x | -15.1 | -17.2
52	C/C(CC(=O)Nc1cccc(C(F)(F)F)c1)=N/NC(=O)C(=O)NCCO
 : -1.5 | -5.7 | -0.8% | -5.0 | 6.4% | 6.5 | -3.2
